# Screening data as filed in PubChem BioAssay.
# Env fusion inh: inhibitors of HIV-1 Env-driven cell-cell fusion, primary screen, HeLa-JRFL effector, CEM21 target cells, luciferase; inhibition, % at 12.3 µM; actives 1.1% (n = 360,000);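 active = mean replicate inhibition score of at least 50 and every replicate individually at or above 50; inconclusive = only one of the two criteria met; inactive = mean below 50 and not all replicates reaching 50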;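 note: 0% = plate neutral controls and 100% = maraviroc near 300 nM; one replicate is shown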
# CSC inhib: cancer stem cell viability inhibitors, primary screen, luminescence; cancer stem cell-like cells viability; inhibition, % at 7.5 µM; actives 1.1% (n = 300,000); AID 2717, 2010;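 active = mean at 75% or more and at least half the replicates too; inconclusive = mean and replicates disagree; tested in HMLE shEcad cells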;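 note: 0% = median of negative and 100% = median of positive control wells; the first replicate is given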
# Rce1 inh: yeast Rce1p protease inhibitors, primary screen, biochemical, fluorescence, cell-free homogeneous; CAAX prenyl protease 2 (Saccharomyces cerevisiae (strain ATCC 204508 / S288c)), Q03530; yeast membranes, quenched prenylated peptide cleavage fluorescence; calls only; actives 0.27% (n = 290,000);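 active = fall in fluorescence gain of 50% or more versus controls, with final raw signal at or below 3038400; inconclusive = same 50% fall but final raw signal above 3038400; inactive = fall in fluorescence gain under 50%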;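 note: plate controls were neutral control wells for no effect and wells lacking membranes for full effect; tested at 10 µM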
# MT1-MMP act inh: blockers of MT1-MMP proenzyme processing, primary screen, HT1080 RFP-PRO-GFP cells, GFP/RFP fluorescence. Matrix metalloproteinase-14 (Homo sapiens), P50281. GFP/RFP ratio fluorescence, overnight; percent of plate control window, DMSO zero. AID 651647, 2012. actives 0.061% (n = 360,000). GFP/RFP ratio change, % at 20 µM;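 active = GFP/RFP ratio change of at least 30% with cell ATP level not reduced by more than half and red fluorescence within 50% of control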; note: strong numbers were not always called active
#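 Assay system – RFP-PRO-GFP reporter HT1080 cells · Compound dosing – single dose of 20 µM compound, 1% DMSO final · Incubation – overnight compound exposure at 37 °C · Measure – GFP/RFP fluorescence ratio · Benchmarks – DMSO wells and RFP-L50D-GFP cells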
# Yeast UUG start: modulators of yeast start codon fidelity, primary screen, whole organism, S. cerevisiae, single point, plate reader | AID 602363, 2012 | S. cerevisiae UUG-firefly luciferase reporter, luminescence/redox ratio | activity score, % at 18.7 µM | actives 0.13% (n = 350,000);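 active = replicate mean at a twofold rise or more, about +100% in these data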;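 note: firefly luciferase made from a UUG start codon reports start codon fidelity; reporter light over untreated wells divided by growth signal over untreated wells; some hits fall short of that in this replicate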
# PABP polyA inh: PABP poly(A) RNA binding inhibitors, primary screen, biochemical, fluorescence polarization, uHTS; actives 1% (n = 290,000); AID 2014, 2009; inhibition, % at 35 µM;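 active = 50% or more with normal probe brightness, or confirmed in later tests; inconclusive = above 50% with abnormal brightness, or retests that disagree; inactive = below 50% or failed in later tests; about a fifth of its hits are not listed in these tables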;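 note: calls also rest on retests at 20 µM and on dose response follow-up; controls were probe without protein and protein plus probe with vehicle; some compounds called inactive have numbers as strong as hits; many hits fall short of the cut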
# Target sequence (P11940 whole entry, looked up): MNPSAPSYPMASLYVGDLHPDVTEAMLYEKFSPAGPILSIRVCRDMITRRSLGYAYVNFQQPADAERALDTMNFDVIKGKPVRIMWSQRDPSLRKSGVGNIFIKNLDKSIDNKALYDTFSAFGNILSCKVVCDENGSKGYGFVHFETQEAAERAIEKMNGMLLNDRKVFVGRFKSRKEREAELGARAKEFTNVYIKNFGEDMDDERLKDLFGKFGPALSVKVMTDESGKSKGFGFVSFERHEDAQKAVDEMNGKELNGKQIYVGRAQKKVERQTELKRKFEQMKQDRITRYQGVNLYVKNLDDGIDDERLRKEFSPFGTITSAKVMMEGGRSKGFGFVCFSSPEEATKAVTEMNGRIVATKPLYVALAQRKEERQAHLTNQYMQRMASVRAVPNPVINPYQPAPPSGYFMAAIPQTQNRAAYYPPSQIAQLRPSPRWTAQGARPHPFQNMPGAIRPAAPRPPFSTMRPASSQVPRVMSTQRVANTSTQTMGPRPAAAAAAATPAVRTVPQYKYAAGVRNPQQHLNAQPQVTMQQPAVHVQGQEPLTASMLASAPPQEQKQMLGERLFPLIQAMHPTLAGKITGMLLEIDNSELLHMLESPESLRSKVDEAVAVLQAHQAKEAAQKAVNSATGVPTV
# eIF4H FP inh: human eIF4H binding inhibitors, primary screen, translation initiation inhibitor project, biochemical, uHTS, fluorescence polarization. Eukaryotic translation initiation factor 4H (Homo sapiens), Q15056. eIF4H fluorescence polarization binding assay. inhibition, % at 35 µM. actives 0.94% (n = 290,000). AID 2012, 2009;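 active = 50% or more with normal probe brightness, or confirmed in later tests; inconclusive = above 50% with abnormal brightness, or retests that disagree; inactive = below 50% or failed in later tests; about a fifth of its hits are not listed in these tables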;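 note: calls also rest on retests at 20 µM and on dose response follow-up; 0% = protein and probe with vehicle and 100% = probe without protein; strong numbers were not always called active; many hits fall short of the cut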
# MT1-MMP act inh RFP: recorded beside MT1-MMP act inh, whose call it bears; RFP signal change, %; measured here: RFP expression control read;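 0 = vehicle wells; hits needed this value within 50% of zero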
# * = called active by the depositor; i = inactive; ? = inconclusive; . = no result given; & = joins results of further samples.
SMILES,Env fusion inh,CSC inhib,Rce1 inh,MT1-MMP act inh,MT1-MMP act inh RFP,Yeast UUG start,PABP polyA inh,eIF4H FP inh
CN(C)S(=O)(=O)c1cccc(NC(=O)CSc2cccc3cccnc23)c1,-26,84*,i,0,-6,-30,1,-12
CCOC(=O)CSc1ccc(S(=O)(=O)N(C)C2CCCCC2)cc1[N+](=O)[O-],.,-8,i,4,3,11,12,-1
CCOCC(=O)Nc1ccccc1C(=O)N1CCOCC1,4,-19,i,0,6,1,-4,4
CC(=O)Nc1ccc(NC(=O)C2Cc3c(-c4cccc(C(C)=O)c4)ccnc3O2)cc1 (stereo unspecified),3,.,.,2,2,-1,.,.
CCOc1cc(CNCc2ccccn2)cc(Cl)c1OCC,6,-7,i,-7,-4,-28,9,-11
CCCCC(=O)Nc1ccc2c3c(cccc13)CC2,10,44,i,-3,2,.,10,-2
CC(C)n1nc(C(=O)NC2CCCCCC2)c2ccccc2c1=O,10,1,.,3,-1,2,.,.
O=C(O)c1ccccc1/C=N/NC(=S)NC1CCCCC1,-20,-2,i,-8,0,-32,-4,-7
CCOC(=O)N1CCN(S(=O)(=O)N2CCCC(C(=O)NCCCN3CC(C)CC(C)C3)C2)CC1 (stereo unspecified),0,-7,i,-2,1,-7,1,-13
COc1ccc(OC)c(Nc2c3ccccc3nc3ccccc23)c1,13,?,i,3,-12,-6,3,7
CC[C@]12c3[nH]c4ccc(Cl)cc4c3CCN1C(=O)[C@@H](CC(=O)NCCCn1ccnc1)C[C@@H]2C(=O)N1CCN(C(=O)C2CC2)CC1,-13,.,.,2,4,-2,.,.
COc1ccc(Nc2ccc(S(=O)(=O)N3CCCCCC3)cc2[N+](=O)[O-])cc1,?,-8,i,2,-28,-15,-9,-3
CCOC(=O)c1c(C)[nH]c(C(=O)CSc2nc(C)cc(C)n2)c1C,-9,-11,i,0,-6,-22,13,-7
CC(C)C(C)(C#N)NC(=O)CN1C(=O)NC2(CCCc3ccccc32)C1=O (stereo unspecified),2,-9,i,-1,6,-6,1,12
COc1cc(C(=O)NNc2nc3cc4c(cc3s2)OCO4)cc(OC)c1OC,10,.,i,-1,2,-20,12,2
COC(=O)CC1=C(c2ccc([N+](=O)[O-])cc2)CCC1=O,-23,.,.,-1,0,-12,.,.
COc1ccc(CC2(CO)CCN(S(=O)(=O)c3cccc4cccnc34)CC2)cc1,-42,-6,i,-3,-1,10,10,-3
Cc1cc(NC(=O)COC(=O)C2COc3ccccc3O2)no1 (stereo unspecified),-10,0,i,4,11,-4,10,-7
Cc1c(NC(=O)c2ccc(Br)s2)c(=O)n(-c2ccccc2)n1C,4,.,i,2,0,-15,-14,-7
CCNC(=O)N(C)[C@H]1C[C@H]2c3[nH]c4ccccc4c3CCN2C[C@H]1[C@H](C)O,-20,.,.,3,4,-6,.,.
COc1cccc(NC(=O)CN(C)C(=O)/C=C/c2cc(OC)ccc2OC)c1,.,-10,i,1,4,-4,-12,-12
CN(C)Cc1c(C(C)(C)O)[nH]c2ccc(C(F)(F)F)cc12,35,-8,.,3,-1,-19,.,.
CCOc1ccc(-c2cc(CCCC(=O)Nc3cc(OC)ccc3OC)no2)cc1,45,-6,i,-3,-6,.,-6,-9
CC1CCN(C(=O)c2cc(N3C(=O)C4C5CCC(C5)C4C3=O)ccc2Cl)CC1 (stereo unspecified),.,-6,i,.,.,.,-3,-18
CCOC(=O)C1=C(COC(=O)CCc2ccc(F)cc2)NC(=O)NC1C (stereo unspecified),3,-13,.,4,7,-1,.,.
COc1ccc(N2C(=O)CC(Sc3nc(C)cc(C)c3C#N)C2=O)cc1 (stereo unspecified),-25,6,i,6,1,-16,1,13
CCCS(=O)(=O)c1nc(S(=O)(=O)c2ccc(C)cc2)c(NCCCn2ccnc2)s1,7,13,i,-4,6,3,.,.
Cn1c(=O)c(C(=O)c2ccccc2)c(O)c2ccccc21,21,-6,i,-1,-1,-2,.,.
COc1ccc(Cc2nnc(NC(=O)c3cccs3)s2)cc1,.,9,i,3,-3,-15,-11,-8
CC(C)NC(=O)COC(=O)c1ccc(Cl)c(S(N)(=O)=O)c1,3,-11,i,11,2,.,11,0
CCn1cc(Cl)c(C(=O)Nc2ccc(OC)c(OC)c2)n1,6,1,i,4,2,-7,-11,0
COC(=O)Cc1c[nH]c2cccc(OCC(O)CN(Cc3ccc([N+](=O)[O-])cc3)C(C)(C)C)c12 (stereo unspecified),-79,0,i,-2,-9,-12,3,5
COc1ccc(N(C(=O)c2ccco2)C(C(=O)NC2CCCC2)c2cccs2)cc1 (stereo unspecified),15,-14,i,4,6,-8,2,-5
CC1(C)CC(=O)C2=C(C1)Nc1cc(Cl)ccc1S2,-35,13,i,-11,-2,.,?,?
O=C(N/N=C/c1ccc(C(=O)O)cc1)C1=NNC(c2ccccc2)(c2ccccc2)C1,-3,-1,i,-2,5,.,2,-1
N#CC(=C=[N-])/C=C(\C(=O)c1ccccc1)[n+]1ccccc1,3,1,i,-1,2,.,-2,-2
CCOC(=O)N1CCC(C(N)=O)CC1,-13,-12,i,2,1,-4,-1,-1
Cc1cc2c(cc1S(=O)(=O)Nc1ccc(F)cc1)n(C)c(=O)c(=O)n2C,-10,.,i,6,-1,3,-4,2
C/C(N)=C(/C#N)C(=O)COC(=O)COc1ccc(Cl)cc1C,4,-19,i,0,5,-23,-1,1
Oc1c(C(c2ccccn2)N2CCCCC2)cc(Cl)c2cccnc12 (stereo unspecified),-17,70,i,-9,-5,-58,-6,15
COc1ccc(-c2cccc([C@H]3[C@@H]4C=CC[C@@H](C)[C@@H]4C(=O)N3Cc3ccccc3)c2)cc1,43,.,.,-15,-17,-12,.,.
COC(=O)c1ccc(COc2ccccc2/C=C(\C#N)C(=O)Nc2ccccc2C)cc1,.,.,i,2,1,-9,-7,-5
Cc1cc(C(=O)CN2CCCC2)c(C)n1-c1ccc(Cl)cc1,-27,13,i,0,2,-9,6,3
CCOc1ccc(NS(=O)(=O)c2cc(C(=O)N3CCN(C(C)=O)CC3)ccc2Cl)cc1,-289,.,i,2,-1,14,6,2
Cc1ccc(-c2cnc3cc(C)nn3c2)cc1,-34,3,i,1,-1,.,6,0
COc1cccc(-c2ccc3c(c2)C2CC3CCN2C(C)=O)c1 (stereo unspecified),9,.,.,-5,-17,5,.,.
Cc1sc(NC(=O)CN2CCCC2)nc1-c1ccc2c(c1)CCN2C(=O)c1cccc(F)c1,-1,-2,i,1,-5,-10,-2,-36
Cc1cc(C)c(OCCCCN(C)Cc2ccccc2)c(C)c1,23,.,i,0,-1,-17,2,4
O=C(NC(NC1CCS(=O)(=O)C1)C(Cl)(Cl)Cl)c1cccc(Cl)c1 (stereo unspecified),14,.,i,2,3,-12,-7,4
COc1cc(NC(=O)C(c2ccccc2)c2ccccc2)c(C(=O)O)cc1OC,-14,-11,i,2,7,-2,8,1
Cc1nn(-c2ccc(Cl)cc2)c(=O)c2ccccc12,-24,14,i,5,3,.,-2,-2
CCN(CC)CCCN=Cc1c(-c2ccccc2)[nH]n(-c2nc3ccccc3s2)c1=O,-24,9,i,3,10,.,10,-7
CCN1C(=O)[C@H]2[C@@H](c3ccc(-c4ccc5c(c4)OCO5)cc3)N[C@@](Cc3ccccc3)(C(=O)OC)[C@H]2C1=O,27,.,.,1,-8,-19,.,.
O=C(CCn1c(=S)[nH]c2cc3c(cc2c1=O)OCO3)N1CCc2ccccc2C1,-47,-7,i,.,.,.,2,-4
CCN(CC(=O)Nc1ccc(NC(C)=O)cc1)c1ccc(C(F)(F)F)cn1,-3,-8,i,2,5,.,7,4
O=C(CCC1CCCN(Cc2ccc3c(c2)OCCO3)C1)NCc1ccc(F)c(F)c1 (stereo unspecified),10,-4,i,2,2,-7,-8,-15
COc1cccc(-c2cc3nc4c(c(N5CCC6(CC5)OCCO6)n3n2)CCC4)c1,5,17,.,-6,-10,.,-4,-5
Cn1c(=O)[nH]c2nnc(-c3ccc(Cl)c(Cl)c3)nc2c1=O,-29,16,i,2,-5,1,12,7
Cc1cc(/C=C(\C#N)C(=O)NCC2CCCO2)c(C)n1-c1ccc(Cl)cc1 (stereo unspecified),-30,-13,i,-3,-13,20,10,19
C=CCNC(=S)N1CCc2[nH]c3ccccc3c2C1,3,-5,i,3,2,-12,-2,-13

# Compounds listed so far that contain two or more sulfur atoms:
SMILES,Env fusion inh,CSC inhib,Rce1 inh,MT1-MMP act inh,MT1-MMP act inh RFP,Yeast UUG start,PABP polyA inh,eIF4H FP inh
CN(C)S(=O)(=O)c1cccc(NC(=O)CSc2cccc3cccnc23)c1,-26,84*,i,0,-6,-30,1,-12
CCOC(=O)CSc1ccc(S(=O)(=O)N(C)C2CCCCC2)cc1[N+](=O)[O-],.,-8,i,4,3,11,12,-1
CCCS(=O)(=O)c1nc(S(=O)(=O)c2ccc(C)cc2)c(NCCCn2ccnc2)s1,7,13,i,-4,6,3,.,.
COc1ccc(Cc2nnc(NC(=O)c3cccs3)s2)cc1,.,9,i,3,-3,-15,-11,-8

# (further entries)
SMILES,Env fusion inh,CSC inhib,Rce1 inh,MT1-MMP act inh,MT1-MMP act inh RFP,Yeast UUG start,PABP polyA inh,eIF4H FP inh
CC(C)CNC(=O)c1ccc(COc2ccc(Cl)cc2Cl)o1,.,2,i,1,-7,8,-8,-5
Cc1ccnc(NC(=O)/C=C/c2ccccc2[N+](=O)[O-])c1,-140,20,.,.,.,.,-4,7
CCC(=O)NC(=S)Nc1cccc(NC(=O)c2ccccc2)c1,10,-12,i,3,2,.,4,6
Cc1ccnc(NS(=O)(=O)c2ccc(-n3cccn3)cc2)c1,5,0,i,1,1,-8,7,0
CC1CCCC(C)N1/N=C/c1ccc(C#N)cc1 (stereo unspecified),2,-5,.,0,-3,.,4,5
Cc1nc(SCC(=O)Nc2ccc(Cl)cc2[N+](=O)[O-])nc(C)c1C,-11,-1,i,4,-1,.,-5,0
COCCn1c(SCC(=O)NCc2ccccc2)nnc1-c1ccco1,-32,-13,i,1,4,-13,-11,-4
CCN1CCN(Cc2ccc(NC(=O)c3cc(NC(=O)C4=NN(c5ccccc5)C(=O)C4)cc(OC)c3)cc2C(F)(F)F)CC1,-102,9,i,2&2,2&7,10&10,-21,12
COc1ccc2c(c1)CCN(C(=O)CCl)C2C1C(=O)CCCC1=O (stereo unspecified),-7,-5,i,1,4,.,-6,20
O=C(COC(=O)c1ccc(S(=O)(=O)N2CCCCC2)cc1)NCc1ccc(F)cc1,-21,.,.,3,2,-19,.,.
CC(=O)NC(c1cccc(F)c1)c1nc(-c2cnc3ccccc3c2)cs1 (stereo unspecified),3,.,.,1,0,-18,.,.
CC(=O)Nc1ccc(S(=O)(=O)NC(CC(=O)NCCCN2CCOCC2)C(C)C)cc1 (stereo unspecified),.,.,i,-6,4,5,-4,-1
O=C1NC(c2ccccc2)(C(F)(F)F)SC2=NCCCN12 (stereo unspecified),.,-7,i,-6,0,-12,-4,4
CCOc1ncccc1C(=O)OCC(=O)NC1CC1,-8,.,i,-1,3,-14,7,-3
